Compound activity as filed in PubChem BioAssay.
CBX7 AlphaScr: inhibitors of human CBX7 binding to H3K27me3 peptide; O95931; AlphaScreen His6-CBX7 / biotin-H3K27me3 peptide binding; stronger effect = lower value; normalised signal (fraction of DMSO) (test concentration not listed); 66,000 compounds, 1.1% hits; in the data active = normalised signal below about 0.5;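 note: 100 nL library stock added to about 20 µL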
Target sequence (O95931 whole entry, looked up): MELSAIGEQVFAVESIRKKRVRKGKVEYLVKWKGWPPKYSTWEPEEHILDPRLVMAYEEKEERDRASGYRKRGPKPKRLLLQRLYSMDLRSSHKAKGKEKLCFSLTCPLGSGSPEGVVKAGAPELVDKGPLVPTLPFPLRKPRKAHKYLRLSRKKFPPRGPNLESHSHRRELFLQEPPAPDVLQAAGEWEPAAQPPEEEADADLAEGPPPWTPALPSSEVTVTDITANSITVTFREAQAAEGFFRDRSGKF
CBX7 AlphaScr z-score: second read-out of CBX7 AlphaScr, no call of its own (marks repeat the call); z-score; measured here: z-score of CBX7 signal; some inactives read as strong as hits; reference of the scale not given here;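 same signal on another scale; lower means less binding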
* marks the source's active call; other numbers are inactive results. These rows are one share of the data; rates above refer to the full screens.

molecule	CBX7 AlphaScr	CBX7 AlphaScr z-score
Cc1cccc(CCNC(=O)[C@H](CSCc2ccccc2)N2Cc3ccccc3C2=O)c1	0.93	-1.5
Cc1cc2cc(CCNC(=O)c3ccc(Cl)cc3)c(=O)[nH]c2cc1C	1.2	2.4
O=C(Nc1ccc(Br)cc1)C1(S(=O)(=O)c2ccc(Cl)cc2)CC1	1	0.67
O=C(c1ccc(Cl)cc1)N1CCc2c([nH]c3ccccc23)C1c1ccc2c(c1)OCO2 (stereo not given)	0.76	-4.3
COc1ccccc1N1CCN(C(=O)Cn2c(=O)c3ccccc3n(C)c2=O)CC1	0.84	-2.4
CCOc1ccc(S(=O)(=O)c2cn(Cc3cccc(OC)c3)c3ccc(OC)cc3c2=O)cc1	1	-0.065
O=C(CN1C(=O)CSc2ccccc21)NCCCN1CCOCC1	0.98	-0.53
CC(=O)N1CCc2cc(S(=O)(=O)NCCC(=O)Nc3cc(C)cc(C)c3)ccc21	1	0.75
Cc1cccc(N2CCN(S(=O)(=O)c3cnc[nH]3)CC2C)c1 (stereo not given)	0.96	-0.72
Cc1cc2nc(Cc3ccc(OC(F)F)cc3)c(=O)[nH]c2cc1C	1	0.49
O=C(Nc1nnc(-c2ccc(Cl)s2)o1)c1ccc(S(=O)(=O)N2CCCC2)cc1	0.046*	-11*
CCCNC(=O)c1cc2c(C)nccc2[nH]c1=O	1	0.032
O=C(CSc1nnc(-c2c[nH]c3ccccc23)n1-c1ccc(F)cc1)N1CCCC1	0.98	-0.12
Cc1cccc(C(=O)Nc2c(C(=O)c3ccc(Br)cc3)oc3ccccc23)c1	1.2	0.98
O=C(CSc1nnc(Cc2cc(=O)[nH]c(=O)[nH]2)n1-c1ccc(Cl)cc1)NC1CCCCC1	1.2	0.35
CCC1Oc2ccccc2N(CC(=O)NC2CCCCCC2)C1=O (stereo not given)	1	0.32
CC(C)COc1ccc(N2CC(C(=O)Nc3ccc(Cl)cc3Cl)CC2=O)cc1 (stereo not given)	0.82	-2.2
CCOC(=O)c1cnc2ccc(OCC)cc2c1Nc1cc(C)ccc1OC	0.91	-2.6
CCc1ccccc1NC(=O)C1CC(c2ccc(F)cc2)=NO1 (stereo not given)	1.1	3.4
NS(=O)(=O)c1ccc(CCNS(=O)(=O)c2ccc3c(c2)CCN3C(=O)C2CCC2)cc1	0.95	-1.3
CCN(C(=O)c1cn(CC)c(=O)c2cc(OC)c(OC)cc12)c1cccc(Cl)c1	1	0.14
COc1ccc(-c2cc(C(F)(F)F)n3nc(C)cc3n2)cc1	1.2	7.2
CC1=CCC2(CO)COC(c3ccccc3O)C1C2 (stereo not given)	0.99	-0.024
CCOC(=O)c1cc(-c2ccccc2C(F)(F)F)no1	1.2	2.5
CC1CCN(Cc2ccc(NC(=O)Nc3cccs3)cc2)CC1	0.94	-1.6
CC1CCCC(C)N1CCCNC(=O)Cn1ncc2c1-c1ccccc1OC2 (stereo not given)	1.1	0.47
O=C(Nc1ccccc1C(F)(F)F)c1cc(C2CC2)on1	1.2	3.1
CC(=O)N1CCc2cc(S(=O)(=O)NCCC(=O)N3CCc4ccccc43)ccc21	1	0.99
COc1ccc(-n2c(Cc3cc(=O)[nH]c(=O)[nH]3)nnc2SCC(=O)N2CCCCC2)cc1	0.77	-3.5
CC(C)Cc1cc(C(=O)Nc2c(Cl)cccc2Cl)no1	1.1	1.6

Three records drawn at random from those above:
molecule	CBX7 AlphaScr	CBX7 AlphaScr z-score
CC(=O)N1CCc2cc(S(=O)(=O)NCCC(=O)Nc3cc(C)cc(C)c3)ccc21	1	0.75
Cc1cccc(C(=O)Nc2c(C(=O)c3ccc(Br)cc3)oc3ccccc23)c1	1.2	0.98
CC(C)COc1ccc(N2CC(C(=O)Nc3ccc(Cl)cc3Cl)CC2=O)cc1 (stereo not given)	0.82	-2.2

4 of the entries above in order of the CBX7 AlphaScr z-score value, falling:
| Molecule | CBX7 AlphaScr z-score |
| --- | --- |
| O=C(Nc1ccccc1C(F)(F)F)c1cc(C2CC2)on1 | 3.1 |
| Cc1cc2cc(CCNC(=O)c3ccc(Cl)cc3)c(=O)[nH]c2cc1C | 2.4 |
| NS(=O)(=O)c1ccc(CCNS(=O)(=O)c2ccc3c(c2)CCN3C(=O)C2CCC2)cc1 | -1.3 |
| O=C(c1ccc(Cl)cc1)N1CCc2c([nH]c3ccccc23)C1c1ccc2c(c1)OCO2 (stereo not given) | -4.3 |

Next section.
molecule	CBX7 AlphaScr	CBX7 AlphaScr z-score
CC(=O)c1sc(Nc2cccc3ccccc23)nc1C	0.91	-3.3
CC1CC(C)CN(CCCNC(=O)c2ccc3c(c2)NC(=O)CS3)C1 (stereo not given)	1	0.47
Cc1ccccc1Nc1nnc(-c2ccc(C)c(S(=O)(=O)N3CCCCC3)c2)c2ccccc12	1	0.033
CCc1noc(C)c1C(=O)Nc1nc(-c2cccc(Cl)c2)c(C)s1	0.93	-2.3
CCOC(=O)COc1ccc2c(c1)C(=O)CC(C)(c1cccnc1)O2 (stereo not given)	0.97	-0.87
CC1CCCCN1CCCNC(=O)c1ccc2c(c1)N(Cc1c(F)cccc1Cl)C(=O)CS2 (stereo not given)	0.99	-0.42
O=C1Nc2cc(C(=O)N3CCN(c4cccc(Cl)c4)CC3)ccc2Sc2ccccc21	0.9	-4.6
CCOC(=O)CNS(=O)(=O)c1cc(-c2nn(C)c(=O)c3ccccc23)ccc1C	0.87	-1.4
CCN(CC)S(=O)(=O)c1cccc(-c2nnc(-c3ccc(C)cc3)o2)c1	0.95	-0.65
O=C(Nc1ccc(F)c(F)c1)c1cnc2sccn2c1=O	0.74	-3.1
Cc1ccc(C(O)(c2ccc(C)cc2)c2cccnc2N2CCCCC2)cc1	1	0.43
O=C1CN(S(=O)(=O)c2ccccc2)CC(=O)N1CCc1ccccc1	1.2	1.9
Cc1cc(C)nc(NC2=NCC(=O)N2c2ccc(-c3ccccc3)cc2)n1	1	0.48
CCOC(=O)c1ccc(NC(=O)C(C)N2C(=O)c3ccccc3C2=O)cc1 (stereo not given)	1.2	1.7
CSc1ccccc1NC(=O)c1cnc2scc(C)n2c1=O	1	1.5
Cc1sc2ncn(CC(=O)NCC(=O)N3CCC(Cc4ccccc4)CC3)c(=O)c2c1C	0.9	-0.95
Cc1ccc(-n2c(Cc3cccn3C)nnc2SCC(=O)NCc2ccccc2Cl)cc1	0.82	-4.3
Cc1nc(N2CCCCC2C)c2c(C)c(C(=O)Nc3cc(F)ccc3C)sc2n1 (stereo not given)	1	0.71
O=C(CC(NC(=O)C(F)(F)F)c1ccccc1)Nc1nnc(CCc2ccccc2)s1 (stereo not given)	1	0.63
O=C(CCNC(=O)Cn1ccc2ccccc2c1=O)NCCCCN1CCOCC1	1	0.88
COc1cccc(NC(=O)c2csc3c2CCCC3)c1	1	0.12
CCc1ccc(C2CC(c3ccc(OC)c(OC)c3OC)n3ncnc3N2)cc1 (stereo not given)	1.1	2
Cc1ccc(NC(=O)COCc2cc(-c3ccc(F)cc3)on2)cc1	0.85	-1.5
CCC1=Nc2cc(C(=O)NCc3ccc(Cl)cc3)ccc2Sc2ccc(C)cc21	0.74	-3.7
Cc1ccc(Nc2c(-c3ccc(O)cc3)nc3c(C)cccn23)cc1	0.74	-4.3
CC(C)NC(=O)c1ccc2c(c1)N(Cc1cccc(Cl)c1)C(=O)c1ccccc1S2	0.81	-3.7
Fc1ccc(COc2ccccc2CNC2CCCC2)cc1	0.79	-2.3
Cc1cccc(NC(=O)c2ccc(COc3ccc(C(C)(C)C)cc3)cc2)n1	1.2	5.4
Cc1ccc2[nH]c(=O)c(CCC(=O)O)c(C)c2c1	1.1	0.77
O=C1CN(c2nc(-c3ccc(Cl)cc3)cs2)CCN1	0.95	-0.16

Later entries.
molecule	CBX7 AlphaScr	CBX7 AlphaScr z-score
Cc1ccc(CN2C(=O)C(C(C)C(=O)NC3CCCC(C)C3C)Sc3ccccc32)cc1 (stereo not given)	0.93	-1.3
COc1ccc(CCNC(=O)CC2Oc3ccccc3NC2=O)cc1OC (stereo not given)	1	1.4
Cc1ccc(NC(=O)CCc2nnc3ccc(N4CCN(C)CC4)nn23)cc1C	1	0.78
Cc1cc(N2CCN(c3ccccc3F)CC2)n2nc(C)nc2n1	0.95	-1.1
COC(CNC(=O)CN1CCN(Cc2ccc(F)cc2Cl)C1=O)OC	1	0.9
O=C(Nc1ccc2c(c1)OCO2)C(c1ccccc1)N(CCO)Cc1ccccc1 (stereo not given)	0.85	-0.96
O=C(c1cnn2c(C(F)(F)F)cc(-c3ccccc3)nc12)N1CCc2ccccc2C1	1	0.88
O=C(Cn1ncc2c1-c1ccccc1OC2)NC1CCN(Cc2ccccc2)CC1	0.96	-1.1
COc1ccc(-c2nc(CS(=O)(=O)CC(=O)NC3CC3)c(C)o2)cc1	0.98	-0.55
O=C(CC1Oc2ccccc2NC1=O)Nc1cccc(C(F)(F)F)c1 (stereo not given)	0.97	-0.57
NC(=O)C1CCN(C2CC(=O)N(CCC(c3ccccc3)c3ccccc3)C2=O)CC1 (stereo not given)	1.2	1.8
O=C(CCCCCn1c(=O)[nH]c2ccsc2c1=O)NCc1cccnc1	1.5	4.1
O=C1CN(C(=O)C2CCCCC2)C(c2ccccc2)c2cc(F)ccc2N1 (stereo not given)	0.97	-0.76
CC1(C(=O)NCc2cccnc2)CCC(=O)N1CCc1ccc(Cl)cc1 (stereo not given)	1	1
CN(CCNC(=O)CCc1nc(-c2ccccc2F)no1)Cc1ccccc1	0.89	-0.25
CCN(Cc1ccccc1)C(=O)CN(C)S(=O)(=O)c1cccc2cccnc12	1	0.15
CCOC(=O)c1cc(-c2ccccc2)n(CCC(=O)NCc2ccccc2OC)c1C	1	-0.038
COc1cccc(CN2CCC(N3CCN(CCO)CC3)CC2)c1	1	0.15
Cc1ccccc1C(=O)Nc1c(C(=O)N2CCC(C)CC2)cnn1-c1ccccc1	0.83	-1.8
CC(C)Oc1ccc(-c2cc(C(=O)O)c3cc(Br)ccc3n2)cc1	1	0.24
Cc1ccc(C(=O)Nc2cc(-c3nn(C)c(=O)c4ccccc34)ccc2N2CCOCC2)cc1	0.96	-1.1
CCCC(O)(c1ccc(OCC)cc1)C(CN1CCOCC1)c1ccccc1 (stereo not given)	0.69	-6.6
CCc1cccc(C)c1NC(=O)c1cc2sc(Cl)cc2n1CC	0.92	-3
COc1cc2c(C(=O)NCCC(C)C)cn(CC(C)C)c(=O)c2cc1OC	1.1	0.13
COc1ccc(-c2nc(SCC(=O)Nc3ccccc3)c(-c3ccccc3)[nH]2)cc1	0.86	-6.7
COc1ccc(NC(=O)CNC(=O)Cn2cnc3sc4c(c3c2=O)CCCC4)cc1Cl	1	0.67
Cc1nc2c(-c3ccccc3)c(C)nn2c(C)c1CCC(=O)Nc1ccc(CN2CCOCC2)cc1	1	1.3
CC(NC(=O)c1ccncc1)C(c1cccs1)N1CCN(c2ccccc2F)CC1 (stereo not given)	0.99	-0.1
CCc1ccc2nc(N3CCC(C(=O)NC4CC4)CC3)sc2c1	1.2	0.51
Cn1c(=O)c(=O)n(C)c2cc(S(=O)(=O)NCc3ccc(Cl)cc3)ccc21	1.1	0.77

The list continues:
molecule	CBX7 AlphaScr	CBX7 AlphaScr z-score
Cc1cccc(C(=O)Nc2ccc3oc(-c4ccc(N(C)C)cc4)nc3c2)c1	1	1.3
Cc1ccc(C(C)C)c(OCC(=O)Nc2cc(-c3nc4ncccc4o3)ccc2C)c1	1	0.87
CN(C)CCNC(=O)c1ccc2c(c1)ncn2C1CCCC1	1.1	2.7
O=C(Cn1cnc2scc(-c3ccccc3)c2c1=O)Nc1ccc(F)cc1F	0.96	-0.97
COc1ccc(N2Cc3cccc(C(=O)Nc4ccc(CN5CCCC5)cc4)c3C2=O)cc1	0.73	-5
COc1ccc(Nc2cc(C(=O)N3CCN(Cc4ccccc4)CC3)c3ccccc3n2)c(OC)c1	0.64	-5.5
CCOC(=O)Cc1nnc2c(Nc3ccc(Cl)cc3)nc3nonc3n12	1.1	0.53
COc1ccc(NC(=O)C(c2ccc(C)cc2)N(C)C(=O)CC2NC(=O)NC2=O)cc1 (stereo not given)	1	0.2
Cc1cc(C)nc(NS(=O)(=O)c2ccc(NC(=O)C(C)(C)C)cc2)n1	1.1	0.75
CC(C)NC(=O)C1CCCN(c2nnc(-n3cccc3)s2)C1 (stereo not given)	1	1.5
O=C(CCCOc1ccc(Cl)cc1)Nc1ncc(Cc2ccc(F)cc2)s1	1	0.12
Cc1cc(C)cc(OCC(=O)Nc2c(C(=O)c3ccc(Cl)cc3)oc3ccccc23)c1	0.99	-0.024
CCC1Oc2ccc(C)cc2N(CC(=O)NCCCN2CC(C)CC(C)C2)C1=O (stereo not given)	0.82	-2.1
CCNC(=O)CC1C(=O)N(c2ccc(F)cc2)C(=O)N1Cc1ccccn1 (stereo not given)	1	-0.012
COc1ccccc1CNC(=O)c1ccc2c(c1)N(Cc1ccccc1)C(=O)c1ccccc1S2(=O)=O	1	-0.0014
COc1ccc(OC)c(NC(=O)Cn2ccc3ccccc3c2=O)c1	1.2	1.5
COc1ccc(NC(=O)CCc2c(C)nc3ncnn3c2C)cc1	1.1	1.2
Cc1cccc(S(=O)(=O)Nc2ccc(-c3cn4cccc(C)c4n3)cc2)c1	0.98	-0.99
CCC(C)Nc1ncnc2c1sc1nc3c(cc12)COC(C)(C)C3 (stereo not given)	0.87	-1.4
O=C(NCCc1nc2ccccc2[nH]1)Nc1ccccc1	1.1	0.088
O=C(NCc1cccs1)C1CCC(CNS(=O)(=O)c2cccc3cccnc23)CC1 (stereo not given)	1	0.48

Another view of some results above.
CCC1Oc2ccc(C)cc2N(CC(=O)NCCCN2CC(C)CC(C)C2)C1=O (stereo not given)
- CBX7 AlphaScr = 0.82
- CBX7 AlphaScr z-score = -2.1

COc1ccc(N2Cc3cccc(C(=O)Nc4ccc(CN5CCCC5)cc4)c3C2=O)cc1
- CBX7 AlphaScr = 0.73
- CBX7 AlphaScr z-score = -5
